Polio RdRp inh: poliovirus RNA polymerase inhibition; poliovirus polymerase elongation, fluorescence polarization; stronger effect = lower value; % elongation, % (compound at 16.7 µg/mL); hit rate 0.66% among 150,000; AID 588519; in the data active means % elongation below about 90%; further: some results filed as inactive read as strong as hits
Target sequence (P03300 1749-2209 limits assumed): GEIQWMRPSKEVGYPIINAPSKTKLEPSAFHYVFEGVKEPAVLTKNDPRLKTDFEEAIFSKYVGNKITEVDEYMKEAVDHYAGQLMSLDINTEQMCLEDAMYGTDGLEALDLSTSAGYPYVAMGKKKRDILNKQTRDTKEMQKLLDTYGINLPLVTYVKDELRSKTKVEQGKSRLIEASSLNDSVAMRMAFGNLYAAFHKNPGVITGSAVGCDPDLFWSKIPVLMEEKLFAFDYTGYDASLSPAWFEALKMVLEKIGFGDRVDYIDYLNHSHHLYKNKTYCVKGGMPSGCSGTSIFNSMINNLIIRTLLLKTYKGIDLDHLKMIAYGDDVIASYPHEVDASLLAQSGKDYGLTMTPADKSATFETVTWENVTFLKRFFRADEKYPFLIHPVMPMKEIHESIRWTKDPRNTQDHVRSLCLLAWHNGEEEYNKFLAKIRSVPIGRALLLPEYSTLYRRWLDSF
Polio RdRp inh intensity: further read-out of Polio RdRp inh, marked with its call; % elongation; measured here: total intensity read-out; formula for this scale not given here;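 total fluorescence in place of polarization; lower means less elongation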
* = called active by the depositor.

SMILES	Polio RdRp inh	Polio RdRp inh intensity
CCOc1ccc(N(CC)S(=O)(=O)c2cc(Br)cc3c2N(C(C)=O)C(C)C3)cc1 (centres undefined)	104	105
Cc1ccc(Cn2c(SCc3ccc(C(=O)N4CCCCC4)cc3)nc3ccncc32)cc1	103	104
CCOc1ccc(NC(=O)CN2CCSc3ccc(S(=O)(=O)N4CCCC4)cc32)cc1	107	109
O=[N+]([O-])c1cc(-c2nc(-c3cccnc3)no2)ccc1NCc1ccccc1	105	113
Cc1ccc(-c2nc(C)c(CCNC(=O)C(=O)Nc3ccc4c(c3)OCCO4)s2)cc1	112	108
CCOc1ccc(CNS(=O)(=O)c2ccc3c(c2)CCCN3C(C)=O)cc1	105	105
COc1ccc(Nc2cc(C)nc(-n3nc(C)cc3C)n2)cc1Cl	108	109
O=C(NCc1ccccc1Cl)c1ccc(CSCc2cccc(F)c2)o1	106	107
Cc1ccc(NC(=O)CSc2nnc(C)c(=O)[nH]2)cc1	100	100
COc1ccc(CCNC(=O)c2cc(=O)c3ccc(C)cc3o2)cc1OC	114	118
CCOC(=O)c1cc(-c2ccccc2)n(CCCC(=O)Nc2ccc(C(C)C)cc2)c1C	102	107
Cn1c(=O)oc2cc(S(=O)(=O)N3CCCC(C(=O)NCc4ccccc4Cl)C3)ccc21 (centres undefined)	109	111
Cc1ccc(CNC(=O)CN2CCN(Cc3ccc(F)cc3Cl)C2=O)cc1	113	117
COc1ccc(-c2cc3ccc(O)c(CN4CCN(C)CC4)c3oc2=O)cc1OC	101	105
COc1ccc(C(=O)NCc2nc(-c3cccc(C)c3)no2)cc1OC	106	100
O=C(Nc1cccc(F)c1)c1ccc2c(c1)N(Cc1ccccc1)C(=O)c1ccccc1S2(=O)=O	104	107
CCOc1ccc(CCNC(=O)Cn2ccc3cc(S(=O)(=O)N4CCCCC4)ccc32)cc1	112	112
Cc1cccc(C)c1NC(=O)Cn1c(=O)n(Cc2ccco2)c(=O)c2ccc(C(=O)NC3CCCC3)cc21	106	107
Cc1ccc(Cl)cc1N1CCN(C(=O)c2cnn(-c3ccc(Cl)cc3)c2C2CCNCC2)CC1	106	108
CCC(=O)Nc1nnc2n1CCS2	107	111
O=C(Nc1nc2ccccc2s1)c1ccc(S(=O)(=O)N2CCCC2)cc1	108	112
Cc1ccc2c(c1)N(CC(=O)NCCc1ccccc1)C(=O)CO2	100	105
O=C(NCc1ccc(F)cc1)c1cccc(N2CCCS2(=O)=O)c1	110	114
O=C(c1cnc(N2CCCCC2)c2ccccc12)N1CCN(c2cccc(Cl)c2)CC1	111	115
Cc1ccc(-n2ccnc(NCCc3ccc(S(N)(=O)=O)cc3)c2=O)c(C)c1	108	117

Compounds shown so far that have a furan ring, fused or not (2):
SMILES	Polio RdRp inh	Polio RdRp inh intensity
O=C(NCc1ccccc1Cl)c1ccc(CSCc2cccc(F)c2)o1	106	107
Cc1cccc(C)c1NC(=O)Cn1c(=O)n(Cc2ccco2)c(=O)c2ccc(C(=O)NC3CCCC3)cc21	106	107

Remaining list, next part
SMILES	Polio RdRp inh	Polio RdRp inh intensity
Cc1ccc(CSc2ccc3nnc(CCNS(=O)(=O)c4ccc(C)cc4)n3n2)cc1	108	110
CC1CCN(CC2CCN(C(=O)NCc3ccc(F)cc3)CC2)CC1	112	114
COc1ccc(C(=O)Nc2ccccc2)cc1S(=O)(=O)Nc1ccc(Br)cc1	106	113
CCCCc1nn2c(=O)cc(COC(=O)CNC(=O)COc3ccc(C)cc3)nc2s1	101	106
CCOc1cc2sc(N3CCC(C(=O)Nc4ccc(C)cc4C)CC3)nc2cc1Br	112	112
COc1ccc(NC(=O)CNC(=O)Cn2c(C)cc3ccccc3c2=O)c(OC)c1	110	111
CCOC(=O)c1cccc(NC(=O)C(C)n2nc(C)c3c(C)n(-c4ccccc4)nc3c2=O)c1 (centres undefined)	101	106
O=S(=O)(Nc1cccc(-c2ccc(N3CCCC3)nn2)c1)c1cc(F)ccc1F	104	107
COc1cccc(CNc2nc3ccccc3c3nc(-c4cccc(C)c4)nn23)c1	104	107
CCc1ccc(NC(=O)CSc2nc3c(c(=O)[nH]2)CN(Cc2ccc4c(c2)OCO4)CC3)cc1	100	94
COCCNc1nc2c(c(=O)n(Cc3cccc(Cl)c3)c(=O)n2C)n1C	113	116
Cc1ccc2ncc3c(-c4ccccc4)nn(CC(=O)NC4CCCCC4)c3c2c1	100	103
COc1ccc(C2=C(C)C(=O)N(Cc3ccc(C(=O)NC(C)c4ccccc4)cc3)S2(=O)=O)cc1 (centres undefined)	111	115
CCOc1cccc(OCCCn2c(-c3ccc(Br)cc3)nc3ccccc3c2=O)c1	105	106
Cc1nc2c3ccccc3nc(NNC(=O)CCC(=O)N3CCN(c4cccc(Cl)c4)CC3)n2n1	135	139
Cc1cc(C)cc(-n2cnc3cc(C(=O)NC4CCCCCC4)ccc32)c1	107	109
CCc1cccc(NC(=O)Cn2nc3c4cc(F)ccc4n(Cc4cccc(C)c4)cc-3c2=O)c1	110	114
Cc1ccc(Nc2nc3ccc(C(=O)c4ccccc4)cc3n3c(C)nnc23)c(C)c1	112	113
CCOc1ccc(CCNC(=O)c2nn(C)c3c2CSc2ccccc2-3)cc1	111	114
Cc1cccc(N2CCN(C(=O)c3c(C)oc4ncnc(N5CCOCC5)c34)CC2)c1C	105	98
COc1cc(OC)cc(C(=O)N2CC(=O)Nc3ccc(Cl)cc3C2c2ccccc2)c1 (centres undefined)	108	112
COc1cccc(-n2cc(C(=O)Nc3cc(OC)c(OC)c(OC)c3)c3ccccc3c2=O)c1	120	121
Nc1nonc1C(=O)NCCNCc1ccccc1F	102	106
CCc1nc(SC)ncc1C(=O)N1CCN(c2cc(C)ccc2C)CC1	102	108
O=C(Nc1cccc(Br)c1)N1CCN2CCCCC2C1 (centres undefined)	111	111

More results
SMILES	Polio RdRp inh	Polio RdRp inh intensity
COc1ccc(NC(=O)c2cccn(Cc3ccc(Cl)cc3)c2=O)c(OC)c1	106	111
Cc1cc2ccccc2n1-c1ccc(C(=O)N2CCC(C(=O)NCc3ccccc3Cl)CC2)s1	108	100
CC1CCN(CCCNC(=O)CN2C(=O)CSc3ccc(S(=O)(=O)N4CCC(C)CC4)cc32)CC1	110	106
COc1cccc(Cn2c(=O)n(Cc3ccccc3)c(=O)c3c2c2cc(OC)ccc2n3C)c1	105	95
COc1ccc(C2C(C(=O)Nc3ccc(C)cc3C)=C(C)Nc3nc(SCc4cccc(C)c4)nn32)c(OC)c1 (centres undefined)	108	105
CCc1ccc(OCc2nc(-c3ccc(OC)c(OC)c3)no2)c(Br)c1	108	112
CCOC(=O)c1c(-c2ccccc2)csc1NC(=O)c1cc(-c2cccc(Cl)c2)on1	84*	84*
CCCCNC(=O)C1CCN(c2nc3ccccc3nc2C(F)(F)F)CC1	98	102
CCCOc1ccc(NC(=O)CC2C(=O)N(c3ccc(C)cc3)C(=O)N2CCc2ccncc2)cc1 (centres undefined)	106	104
COc1cc([N+](=O)[O-])ccc1NC(=O)N1CCC2(CC1)Nc1ccccc1-n1cccc12	101	108
COc1ccc(-c2cc(C(=O)NCc3cc(OC)c(OC)c(OC)c3)[nH]n2)cc1	109	113
CCc1cccc(CC)c1NC1=NS(=O)(=O)c2ccccc21	105	108
O=C1NC(NS(=O)(=O)c2ccccc2)(C(F)(F)F)C(=O)N1c1ccc(F)cc1 (centres undefined)	107	109
Cc1oc2ncn(C)c(=O)c2c1C(=O)NC(C)c1ccccc1 (centres undefined)	100	95
O=C(CSc1nc2sc3c(c2c(=O)[nH]1)CCCC3)Nc1ccccc1F	100	107
Cc1ccc2c(=O)c(C(=O)c3cccc(Cl)c3)cn(CC(=O)NC3CCCCC3)c2n1	105	98
Cc1cccc(N2C(=O)C(CC(=O)Nc3cccc(F)c3)N(CCc3ccncc3)C2=O)c1 (centres undefined)	101	105
CCOC(=O)c1cnc2c(C)cc(C)cc2c1Nc1ccc(OCc2ccccc2)cc1	108	109
O=C(Cn1c(=O)nc(-c2ccccc2)c2cc(Cl)ccc21)N1CCN(c2ccc(F)cc2)CC1	107	114
CCc1ccc(NC(=O)CSc2nc3nccnc3c(=O)n2CCc2c[nH]c3ccccc23)cc1	111	109
Cc1nn(Cc2noc(C(=O)NCc3cccc(F)c3)n2)c(C)c1Br	107	108
Cc1oc2ncn(CC(C)C)c(=O)c2c1C(=O)N(Cc1ccccc1)C(C)C	105	112
CCc1ccc(NC(=O)C(=O)NCCc2csc(-c3ccc(C(F)(F)F)cc3)n2)cc1	109	102
COc1cc2c(cc1OC)n(CC(=O)c1ccc(C)cc1)c(=O)n1nc(CCn3nc(C)cc3C)nc21	100	96
Cc1ccc(NC(=O)c2c(NC(=O)c3ccco3)sc3c2CCC(C(C)(C)C)C3)c(C)c1 (centres undefined)	100	96

Structures above that contain a nitro group on carbon:
SMILES	Polio RdRp inh	Polio RdRp inh intensity
O=[N+]([O-])c1cc(-c2nc(-c3cccnc3)no2)ccc1NCc1ccccc1	105	113
COc1cc([N+](=O)[O-])ccc1NC(=O)N1CCC2(CC1)Nc1ccccc1-n1cccc12	101	108

Copied from the list:
Under Polio RdRp inh, Cc1oc2ncn(C)c(=O)c2c1C(=O)NC(C)c1ccccc1 (centres undefined) is entered as 100
Under Polio RdRp inh intensity, Cc1oc2ncn(CC(C)C)c(=O)c2c1C(=O)N(Cc1ccccc1)C(C)C is entered as 112
Under Polio RdRp inh, COc1ccc(NC(=O)c2cccn(Cc3ccc(Cl)cc3)c2=O)c(OC)c1 is entered as 106
Under Polio RdRp inh intensity, O=C1NC(NS(=O)(=O)c2ccccc2)(C(F)(F)F)C(=O)N1c1ccc(F)cc1 (centres undefined) is entered as 109

Next part
SMILES	Polio RdRp inh	Polio RdRp inh intensity
CCOC(=O)c1[nH]c(C)c(CCC(=O)Nc2cc(Cl)c(OC)cc2OC)c1C	106	102
CC1CCN(c2nc3c(S(=O)(=O)c4ccc(Cl)cc4)nnn3c3ccsc23)CC1	106	93
CC(=O)c1cccc(NC(=O)c2nc(-c3ccc(C)cc3)n3c2CCCCC3)c1	110	108
COC(=O)CC1Oc2ccc(Cl)cc2-n2cc(-c3ccc(C)cc3)nc21 (centres undefined)	101	97
CC(=O)c1ccc(NC(=O)C2=CC(c3ccc(C)cc3)=NS(=O)(=O)N2C)cc1	8.0*	31*
CCc1cc(=O)[nH]c(SCc2nc(-c3ccccc3)no2)n1	105	109
CCCCN1C(=O)C(O)(CC(=O)c2ccc(CC)cc2)c2cc(Br)ccc21 (centres undefined)	103	103
Cc1ccc(NC(=O)c2ccc(CN3CC(=O)N4CCCCC4C3=O)cc2)cc1C (centres undefined)	100	107
COc1cc(C(=O)NCCSc2c(-c3ccccc3)[nH]c3ccccc23)cc(OC)c1OC	103	109
O=C(Cc1ccc(Cl)cc1)NC1CC(=O)N(c2ccc3c(c2)OCCO3)C1 (centres undefined)	111	109
CN(C)S(=O)(=O)N1CCC(n2c(C(F)(F)F)nc3cccnc32)CC1	115	106
COc1ccc(C(=O)Oc2c(Sc3ccc(Cl)cc3)c(C)nn2C(C)(C)C)cc1OC	105	105
CSc1ncc(C(=O)NCc2ccc(C)cc2)c(-c2ccccc2)n1	109	109
COC(=O)c1c(NC(=O)C(C)Oc2ccc(Cl)cc2Cl)sc2c1CCCC2 (centres undefined)	100	99
CC(C)OCCCNC(=O)c1nn(C)c2c1CSc1ccccc1-2	105	107
COc1ccc(CNC(=O)CN2C(=O)COc3ccc(S(=O)(=O)N4CCOCC4)cc32)cc1	110	112
Cc1cc(C)cc(-n2ccnc2SCC(=O)Nc2ccccc2F)c1	112	115
O=C(Cc1ccccc1)N(Cc1cccnc1)c1nc2ccc(F)cc2s1	111	113
O=C(Cn1ncc2c(Cl)cccc21)NCc1cccc(Cl)c1	109	104
COc1ccccc1N1CCN(C(=O)c2cnn(-c3cccc(Cl)c3)c2C2CCN(C(=O)OC(C)(C)C)CC2)CC1	107	110
CN(C)c1ccc(CNC(=O)c2sc3ncccc3c2-n2cccc2)cc1	105	105
Cc1c(CNC2CCCCCC2)c(C(=O)O)c(C)n1Cc1ccc(F)cc1Cl	104	109
Cc1ccc(C)c(N2CCN(C(=O)CCn3c(=O)[nH]c4ccccc4c3=O)CC2)c1	105	104
CC(=O)c1ccc(NC(=O)CCc2c(C)nn(-c3ccc(N4CCOCC4)nn3)c2C)cc1	105	104
O=C(Cn1c(-c2cccs2)cc2ccccc21)NCCCN1CCN(c2ccc(F)cc2)CC1	107	99

Carrying on.
SMILES	Polio RdRp inh	Polio RdRp inh intensity
COc1ccc(-c2noc(CSc3nnc(-c4ccc(Cl)cc4)n3C)n2)cc1OC	107	108
Cc1ccc(S(=O)(=O)N2CCN(Cc3ccccc3)CC2)c(C)c1NS(C)(=O)=O	99	101
Cc1cc(O)c(-c2ccnc3cc(-c4ccccc4)nn23)cc1Cl	100	97
Cc1ccc2c(=O)c(C(=O)c3ccccc3)cn(CC(=O)Nc3ccccc3)c2n1	116	128
CC(C)OC(=O)c1cccnc1SCC(=O)Nc1ccc(C(F)(F)F)cc1Cl	110	112
Cc1ccc2[nH]c3c(=O)n(CC(=O)N(CCN(C)C)Cc4ccccc4)ncc3c2c1	113	111
Cc1c2cnn(CC(=O)NC(C)C)c(=O)c2c(C)n1Cc1cccc(Cl)c1	107	109
Cc1ccc(CCNC(=O)CCSCc2ccccc2F)cc1	113	114
COCCCNc1ncnc2c1cnn2-c1ccc(F)cc1	101	106
Cc1ccc(NC(=O)C2CCCN(S(=O)(=O)c3cccc4cccnc34)C2)c(C)c1 (centres undefined)	106	110
COc1cccc(NC(=O)c2sc3nc(C)c(C(=O)Nc4ccc(C)cc4C)c(-c4ccc(Br)cc4)c3c2N)c1	94	98
COc1ccccc1N1CCN(C(=O)CCS(=O)(=O)c2ccc3c(c2)oc(=O)n3C)CC1	109	105
COc1ccc(-c2cn3nc(N4CCCC(C(=O)Nc5ccc(C)c(C)c5)C4)sc3n2)cc1 (centres undefined)	108	111
CC1(C)N=C(c2ccc(F)cc2)C(=O)N1CC(=O)Nc1ccccc1Cl	107	110

One compound at a time, from the list above:
Cc1ccc(NC(=O)C2CCCN(S(=O)(=O)c3cccc4cccnc34)C2)c(C)c1 (centres undefined) as listed: Polio RdRp inh = 106; Polio RdRp inh intensity = 110
COc1ccc(-c2noc(CSc3nnc(-c4ccc(Cl)cc4)n3C)n2)cc1OC as listed: Polio RdRp inh = 107; Polio RdRp inh intensity = 108
Cc1ccc(S(=O)(=O)N2CCN(Cc3ccccc3)CC2)c(C)c1NS(C)(=O)=O as listed: Polio RdRp inh = 99; Polio RdRp inh intensity = 101

Not all compounds are listed, so the mix of outcomes need not match the whole.
